# Assay outcomes (PubChem BioAssay)
# OX1R antag: antagonists of human orexin 1 receptor (OX1R) | AID 485270, 2010 | 1.8% of 330,000 active | OX1R-expressing cells, FRET antagonist read-out | Orexin/Hypocretin receptor type 1 (Homo sapiens), O43613 | inhibition, % at 6.6 µM; in the data active = inhibition mostly above about 38%, no sharp cut-off; inactive = mostly below about 40%;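 also: 0% = agonist challenge alone and 100% = reference antagonist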
# Target sequence (O43613 whole entry, looked up): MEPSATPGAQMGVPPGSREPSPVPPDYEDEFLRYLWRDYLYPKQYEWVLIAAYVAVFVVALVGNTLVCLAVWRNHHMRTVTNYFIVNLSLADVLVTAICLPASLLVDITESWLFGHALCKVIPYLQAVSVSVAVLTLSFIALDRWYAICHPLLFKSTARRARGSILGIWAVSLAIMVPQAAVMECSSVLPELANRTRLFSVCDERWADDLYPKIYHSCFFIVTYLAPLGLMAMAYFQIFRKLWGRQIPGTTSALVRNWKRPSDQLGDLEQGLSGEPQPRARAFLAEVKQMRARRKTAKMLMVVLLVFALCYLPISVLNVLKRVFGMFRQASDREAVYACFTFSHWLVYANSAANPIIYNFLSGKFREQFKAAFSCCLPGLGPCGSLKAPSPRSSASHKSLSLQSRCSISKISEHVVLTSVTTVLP
# An asterisk follows results filed as active; & = joins results of further samples. An excerpt, and most or all hits are left out here.
compound	OX1R antag
CCOC(=O)[C@H](CCc1ccccc1)N[C@@H](C)C(=O)N1CCC[C@H]1C(=O)O	12&10
COC(=O)[C@@H](NC(=O)NCc1ccccc1F)C(C)C	8
COc1ccc2nc(SCc3cnc(C)nc3N)[nH]c2c1	8
Cc1cc(Cl)ccc1OC(C)C(=O)OCC(=O)c1ccc[nH]1 (stereo not drawn)	12
Cc1cc2nc3n(c2cc1C)CC1CC(C(=O)NCc2cccc(C(F)(F)F)c2)N(C)C31 (stereo not drawn)	6
COc1ccccc1-n1cnc2cc(NCc3ccccc3O)ccc21	26
O=C1NC[C@H](CC2CCCCC2)N(CC2CCCCC2)C1=O	15
COC(=O)c1cc(NC(=O)Cc2cc(OC)c(OC)c(OC)c2)cc(C(=O)OC)c1	-3
CC(=O)N1CCSc2ccc(S(=O)(=O)NCc3ccc(F)cc3)cc21	9
N#CCCN1CCN(S(=O)(=O)c2cc(Cl)ccc2Cl)CC1	1
COc1ccc(Cl)cc1NC(=O)c1cc(S(=O)(=O)N2CCCC2)cn1C	4
Cn1c(=O)c2c(nc(SCC(=O)NCC3CCCO3)n2C)n(C)c1=O (stereo not drawn)	4
O=C(CNC(=O)c1sc2ccccc2c1Cl)Nc1ccccc1F	26
O=c1c2cccnc2n(-c2ccccc2)n1Cc1c(Cl)cccc1Cl	4
S=c1[nH]nc(C2CCCCC2)n1/N=C/c1cccs1	8
COn1c(-c2ccc(C)cc2)nc2ncccc21	-1
CN1CCN(S(=O)(=O)c2ccc(N(C)CC(=O)Nc3ccc(F)cc3)nc2)CC1	2
Cc1ccc(NC(=O)CN(C)C(=O)CSc2n[nH]c(N)n2)cc1	-1
CC(C)CNS(=O)(=O)c1ccccc1C(=O)N1CCCCC1	8
O=S(=O)(NCC(c1ccco1)N1CCc2ccccc2C1)c1ccc(F)cc1 (stereo not drawn)	24
COC(=O)C(C)N(C(=O)c1ccc(Cl)cc1)c1c(C)cccc1C (stereo not drawn)	30
Cc1ccc(S(=O)(=O)N2CCN(C(=O)c3cc4c(C)nn(-c5ccccc5C)c4s3)CC2)cc1	13
CCOC(=O)/C(C#N)=C/c1cc(C)n(-c2ccc(C)cc2)c1C	17
CC(C)(CNC(=O)CCC1CCCC1)CNC(=O)CCC1CCCC1	-3

# Retrieved one by one from above (four):
compound	OX1R antag
O=c1c2cccnc2n(-c2ccccc2)n1Cc1c(Cl)cccc1Cl	4
COn1c(-c2ccc(C)cc2)nc2ncccc21	-1
COC(=O)C(C)N(C(=O)c1ccc(Cl)cc1)c1c(C)cccc1C (stereo not drawn)	30
S=c1[nH]nc(C2CCCCC2)n1/N=C/c1cccs1	8

# Molecules listed so far that contain a thiophene ring, fused or not (three):
compound	OX1R antag
O=C(CNC(=O)c1sc2ccccc2c1Cl)Nc1ccccc1F	26
S=c1[nH]nc(C2CCCCC2)n1/N=C/c1cccs1	8
Cc1ccc(S(=O)(=O)N2CCN(C(=O)c3cc4c(C)nn(-c5ccccc5C)c4s3)CC2)cc1	13

# Next part
molecule: O=C(Cn1[nH]c(=O)c2ccccc2c1=O)OCC(=O)c1ccccc1
  OX1R antag: 3

molecule: CCOC(=O)C1CCCN(CC(=O)NC2CC2)C1 (stereo not drawn)
  OX1R antag: 16

molecule: CCCN(CCC)C(=O)C[n+]1cccc(/C=N/O)c1
  OX1R antag: 25

molecule: O=C1CC(N(CCc2ccccc2)C(=S)Nc2ccccc2)C(=O)N1c1ccccc1 (stereo not drawn)
  OX1R antag: 12

molecule: Cc1ccc(S(=O)(=O)Nc2ncnc3sc(C)c(C)c23)cc1
  OX1R antag: 15

# Reformatted with the structure last: 4 of the compounds above.
OX1R antag | Molecule
8 | COc1ccc2nc(SCc3cnc(C)nc3N)[nH]c2c1
12 | Cc1cc(Cl)ccc1OC(C)C(=O)OCC(=O)c1ccc[nH]1 (stereo not drawn)
6 | Cc1cc2nc3n(c2cc1C)CC1CC(C(=O)NCc2cccc(C(F)(F)F)c2)N(C)C31 (stereo not drawn)
26 | COc1ccccc1-n1cnc2cc(NCc3ccccc3O)ccc21
